High-throughput results deposited in PubChem BioAssay by ICCB-Longwood Screening Facility, Harvard Medical School.
CapD inh: inhibitors of Bacillus anthracis CapD enzyme; AID 492967; purified CapD enzyme, fluorescence intensity read-out; stronger effect = lower value; some hits fall short of the stated cut; z-score (test concentration not listed); actives 0.23% (n = 140,000);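 active = z-score under -4 in either of two replicates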;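 also: stock transfer was 100 nL into about 40 µL; score is relative to mean and spread of the plate; one replicate is shown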
AID504770: growth inhibitors of E. coli YBA685 in a screen for V. cholerae RctB (chromosome II replication) inhibitors; E. coli YBA685 rctB-dependent plasmid, OD600 growth, 3 h; stronger effect = lower value; z-score (concentration not given with the values); AID 504770; actives 0.27% (n = 130,000);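 active = z-score under -2 on both plates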;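 also: wells of about 30 µL received 100 nL stock; score is relative to mean and SD of the test wells; the first replicate is given; strong numbers were not always called active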
Active calls of the source: *; x = no result given.

SMILES	CapD inh	AID504770
CCCn1c(=O)c(C#N)nn(-c2ccc(OC)cc2)c1=O	-0.615	-0.7
COc1ccc(C2C3CCc4ccccc4C3=NN2C(=O)c2cccs2)cc1 (centres undefined)	2.08	2.1
Cc1ccc(SCc2nccn2Cc2ccc(Cl)cc2)cc1	0.255	-0.65
C=CCn1c(=O)c2ccccc2n2c(SCC(=O)N3CCc4ccccc43)nnc12	x	1.05
CC(=O)N(C)S(=O)(=O)c1ccc(C)cc1	0.785	-0.2
Cn1nc(C(F)(F)F)c(C(=O)Nc2ccc(OC(F)(F)F)cc2)c1Cl	-0.52	x
Cc1cc(C)n2ncc(C(=O)N(C)Cc3ccccc3)c2n1	30.2	0.2
N/C(COc1ccc(-c2nnco2)cc1)=N\OC(=O)c1ccc(Cl)cc1	1.08	0.1
N#Cc1c(NC(=O)CCN2CCOCC2)sc2c1CCCCC2	0.255	-0.1
CCN(CC)C(=O)NCC12CC3CC(CC(C3)C1)C2	0.275	1.75
CCOC(=O)c1sc2nc(N)c(C#N)c(-c3ccc(Cl)cc3)c2c1N	2.09	-0.85
Clc1ccc2c(c1)CCN2	x	-2.15
CC1Cc2ccccc2N1C(=O)COc1c(F)c(F)c(F)c(F)c1F (centres undefined)	-0.63	-1.4
COc1ccc(C2=NOC(C(=O)NC(C)C)C2)cc1OC (centres undefined)	-0.645	-1.2
COc1cccc(/C=N/NC(=O)c2ccc3nonc3c2)c1O	-0.015	x
CCOC(=O)N1CCN(c2nc(N)c(C#N)c(CC#N)c2C#N)CC1	x	-0.05
CC(O)(CS(=O)(=O)C1CCCCC1)C(=O)Nc1ccc(Cl)cc1 (centres undefined)	-0.51	x
COC(=O)C1=C(N)OC2=C(C(=O)CC(c3ccccc3)C2)C1c1ccc(Cl)c([N+](=O)[O-])c1 (centres undefined)	-0.295	x
CCCC(=O)Nc1ccccc1NC(=O)CCC	x	-0.45
CC(=NC1CC1)c1c(C)[nH]n(-c2nc3ccccc3s2)c1=O	0.075	-0.05
O=C1c2ccccc2C2=Nc3ccccc3SC(c3ccc(F)cc3)C12 (centres undefined)	2.33	-0.75
COc1cccc2c1oc(=O)c1c(NC(C)=O)nc(-c3cccs3)nc12	1.17	0.35
Cc1cc(/C=C2\SC(=O)N(C)C2=O)c(C)n1-c1ccc(Br)cc1F	-0.17	x
Cc1cc(C(=O)NNC(=O)c2ccccc2OC(F)(F)F)n[nH]1	11.1	x
O=C(NCCc1ccco1)c1ccc(Cn2c(SCc3ccccc3)nc3cccnc32)cc1	95.7	0.35
COc1ccc(-c2ccc(S(=O)(=O)N3CCCCCC3)cc2)cc1	0.435	-0.4
CCCc1c(Cc2c(F)cccc2Cl)c(=O)oc2cc(O)ccc12	82.4	0.1
CC1=C/C(=N/NC(=O)c2ccc(CSc3nncn3C)cc2)CC(C)(C)C1	x	-0.4
O=C(O)c1nccnc1C(=O)N1CCc2ccccc2C1	-0.35	0.15
COc1ccc(C2CC(=O)N3CN(CCC(C)C)CSC3=C2C#N)cc1OC (centres undefined)	-1.89	-1.65
O=C(NCCN1CCN(Cc2ccccc2Cl)CC1)C(=O)Nc1ccc(Br)cc1	-1.1	x
Cc1nc(NC(=O)C2CC3CCCC(C2)C3=O)sc1C (centres undefined)	0.26	-0.8
Cc1cc(C)n2nc3nc(N4CCC(C)CC4)nc(-c4ccccc4)c3c2n1	0.165	0.35
Clc1cccc(Cl)c1CON/C=N\c1ncnc2sccc12	0.445	x
O=C1C2C3C=CC(CC3)C2C(=O)N1c1ccc(F)cc1 (centres undefined)	0.255	x
COc1cc(C2C(C#N)=C(N)Oc3n[nH]c(C)c32)cc(Br)c1OCc1ccccc1 (centres undefined)	-0.47	x
CCCc1nn2c(=O)cc(O)nc2s1	0.33	-1.1
COc1ccccc1-c1nnc(SCC(=O)Nc2cccc3nsnc23)n1-c1ccccc1	x	-0.4
CC1Cn2c(C(=O)NCc3ccccc3)cc3cccc(c32)S1 (centres undefined)	63.5	0.05
CCOc1ccnc2sc(C(=O)c3cccnc3)c(N)c12	-0.91	-0.55
COc1cc(-c2nc3c4ccccc4c4ccccc4c3[nH]2)cc(OC)c1O	-0.33	x
Cc1cc(-c2ccc(/C=c3\sc4nc5ccccc5n4c3=O)o2)c([N+](=O)[O-])cc1C	0.23	x
O=C(Nc1ccccc1C(=O)NCCCO)c1ccccc1	x	-0.35
COc1ccc(-c2csc(NC(=O)Cc3cccc4ccccc34)c2C(=O)O)cc1	0.42	0.4
Cc1cc(Nc2cccc(C(F)(F)F)c2)nc2ccc(NC(=O)c3ccccn3)cc12	0.615	0.75
COc1ccc(CCNC(=O)Cn2c(-n3nc(C)cc3C)nc(C)c(C)c2=O)cc1OC	x	2.1
O=C(CN(Cc1ccco1)C(=O)Cn1cnnn1)Nc1ccc(Cl)c(C(F)(F)F)c1	x	-0.05
CC(OC(=O)c1ccc(Br)o1)C(=O)NCC1CCCCC1 (centres undefined)	x	2.05
O=[N+]([O-])c1ccc(Nc2nc(NCCN3CCOCC3)nc(N3CCCC3)n2)cc1	-0.41	x
Cc1oc(-c2ccccc2)nc1CC(=O)N1CCCC(O)C1 (centres undefined)	1	x
(list continues)
SMILES	CapD inh	AID504770
OC(Cc1nc2ccccc2[nH]1)c1ccccc1Cl (centres undefined)	0.815	1.8
N#C/C(N)=C(/C#N)N=Cc1cccc(Cl)c1	-3.03	-0.7
Cc1ccc(-c2nn3c(C)nnc3s2)cc1N	-0.415	1.9
COc1ccc(Nc2nc(-c3ccncc3)nc3ccccc23)cc1	-0.595	-0.05
O=C(NC1=NCCS1)c1cc2ccccc2o1	0.035	-0.7
CCN(CC)S(=O)(=O)c1ccc(O)c(C(=O)OCC(=O)NC23CC4CC(CC(C4)C2)C3)c1	x	-0.6
CCOc1ccc(S(=O)(=O)N2CCCC(C(=O)N3CCN(CC)CC3)C2)cc1Cl (centres undefined)	x	2.6
O=C(NCCCl)c1ccc2ccccc2n1	0.85	-0.3
CC1(C)CC(Nc2nc(Cl)c(C#N)c(Cl)c2Cl)CC(C)(C)N1	-0.76	1.65
Cc1cccc(Cn2c(=O)n(-c3ccccc3)c(=O)c3sccc32)c1	0.49	-0.05
COc1cc(NC(=O)CCc2nc(C3=CCN(C)CC3)no2)cc(OC)c1OC	-0.015	-0.15
CC(=O)Oc1ccc(CC2SC(=O)NC2=O)cc1 (centres undefined)	-0.47	-0.4
O=C(CN(C1=NC2CS(=O)(=O)CC2S1)c1ccccc1F)Nc1ccccc1 (centres undefined)	0.17	0.5
Cc1cc(C)nc(SCc2ccc(C(=O)N/N=C/c3ccco3)cc2)n1	x	-0.6
COc1ccc2c(c1OC)C(=O)OC2OC(C)=O (centres undefined)	5.89	x
CCOC(=O)c1ccc2c(c1)C1C=CCC1C(c1ccc(Cl)cc1Cl)N2 (centres undefined)	0.115	x
COC(=O)c1ccc(COC(=O)CNS(=O)(=O)c2ccccc2)cc1	-0.055	-0.9
CC(C)N1CCN(C(=O)c2ccccc2)CC1	-0.54	-1.3
O=C(Nc1nnc(CCS(=O)(=O)c2ccc(Cl)cc2)s1)c1ccc([N+](=O)[O-])cc1	-0.16	x
CCN(CC(=O)NCc1ccc(F)cc1)C(=O)C1CCCC1	x	1.55
COC(=O)c1cc(-c2ccccc2)nc2c1c(C)nn2-c1ccccc1	-0.655	-0.35
COc1ccc(-n2cccc2C=C(C#N)C#N)cc1	x	0.55
O=C(c1ccccc1)C1CN(c2ccccc2)CC1C(=O)c1ccccc1 (centres undefined)	1.5	x
Nc1nc(-c2ccco2)nc(-c2ccco2)n1	17.6	0
N#Cc1c(C(F)(F)F)cc(-c2cccs2)nc1SCC(=O)Nc1ccccc1	9.44	x
CC(OC(=O)c1cccc(N2C(=O)C3CC=CC(C)C3C2=O)c1)C(=O)c1ccccc1 (centres undefined)	0.49	x
CN1CCN(c2nc(N3CCCc4ccccc43)nc(N3CCCc4ccccc43)n2)CC1	1.32	0.4
CCOc1ccccc1C(=O)NNC(=O)c1ccc(-n2cccc2)cc1	14.8	x
O=C(Oc1ccc2c(=O)c(Cl)coc2c1)c1cccnc1	x	-0.35
O=C1c2ccccc2CCC1C1(O)C(=O)Nc2ccccc21 (centres undefined)	0.285	x
Oc1ccc(C2N(c3ccccc3)CCN2c2ccccc2)cc1	0.255	1.3
O=C(O)CCN1C(=O)SC(Nc2ccccc2)C1=O (centres undefined)	0.02	0.6
Cc1[nH]c2ccc(C(=O)NN)cc2c1C	x	1.55
CCN1CCCC(OC(=O)c2ccc3c(=O)n4c(nc3c2)CCCCC4)C1 (centres undefined)	x	-1.6
CC1CN(S(=O)(=O)c2ccc(F)c(F)c2)CC(C)O1 (centres undefined)	0.5	0.2
CCCCc1nc2n[nH]c(N)c2c2c1CCCC2	-0.91	-1.15
O=C1N(c2ccccc2)C(c2ccccc2)C1(F)F (centres undefined)	-0.185	-0.05
Cc1cc(S(C)(=O)=O)c2ccccc2n1	0.025	x
CC(=O)N/C(=C\c1ccc(OC(C)C)cc1)C(=O)O	-0.71	-0.4
COc1ccc2oc(=O)c(C(=O)NC3CCCCC3C)cc2c1 (centres undefined)	3.34	-0.1
O=C1c2cccc3cccc(c23)N1CSc1nc2ccccc2s1	1	-0.05
COc1cc(OC)nc(C2CCN(C(=O)/C=C/c3ccccc3)CC2)n1	-0.815	x
COc1cccc(Sc2nc(-c3ccccc3)ncc2S(C)(=O)=O)c1	-0.09	x
N#CC(C(=O)c1ccc(Cl)cc1Cl)c1nc2ccccc2[nH]1 (centres undefined)	7.37	-1.3
O=C(CSc1nc2ccccc2s1)NNc1ncnc2c1cnn2Cc1ccccc1	-0.42	1.7
S=C(NC1CCCCCCCCCCC1)NC1CC2C=CC1C2 (centres undefined)	-0.235	x
O=C1C=C/C(=N\OC(=O)c2ccccc2)C2=C1C1C=CC2C1 (centres undefined)	x	2.05
CSc1cccc(-n2nnc(C(N)=O)c2C)c1	1.34	-0.35
CCOC(=O)C1CCc2nc3ccccc3c(=O)n21 (centres undefined)	0.335	-0.2
CCCc1c(C)c2c(C)[nH]nc2oc1=O	2.45	x
New compounds follow:
SMILES	CapD inh	AID504770
COC(=O)CN1C(=O)NC2NC(=O)NC21 (centres undefined)	-0.515	x
CCOc1ccc(/C=N/NC=O)cc1	x	0
COc1ccc(OC)c(/C=c2\sc3nnc(-c4ccccc4Cl)n3c2=O)c1	-0.045	0.05
CC(=O)c1ccc(N2CCN(C(=O)c3ccc4c(=O)n(Cc5ccc(Cl)cc5)c(=S)[nH]c4c3)CC2)cc1	-0.625	x
O=C(Nc1ccc2oc(-c3ccc(F)cc3Cl)nc2c1)c1ccc([N+](=O)[O-])cc1[N+](=O)[O-]	-0.23	x
CCOc1ccc(CN2CCC(n3nc(-c4ccoc4C)oc3=O)CC2)cc1	x	1.1
Cc1cc(OCC(=O)Nc2ccccc2Cc2ccccc2)no1	x	-0.85
CS(=O)(=O)c1ccc2nc(NC(=O)C3CCCO3)sc2c1 (centres undefined)	0.815	-0.25
c1ccc(-c2nc3cnccn3c2Nc2ccc3c(c2)OCCO3)cc1	-0.025	0.9
O=C(/C=C/c1ccccc1)Nc1cc(C(=O)Nc2ccc3c(c2)OCCO3)ccc1N1CC2CC(C1)c1cccc(=O)n1C2 (centres undefined)	-0.455	x
Cn1c(CSCC(=O)Nc2ccccc2)nnc1SCc1ccc(Cl)cc1	-0.445	-0.4
NC(=O)Cn1c(=O)n(Cc2ccccc2)c(=O)c2cccnc21	-1.1	3.25
COc1ccc(N2C(=O)/C(=C\c3ccc(Cl)cc3)S(=O)(=O)C2c2ccc(Cl)cc2)cc1 (centres undefined)	-0.145	x
COc1ccccc1OCC(=O)O	0.275	-1.2
Cc1ccc(-n2nc3c(c2NC(=O)c2ccc(C(=O)c4ccccc4)cc2)CS(=O)(=O)C3)c(C)c1	-0.37	x
COc1ccc(C)cc1NC(=O)C(OC(=O)c1ccc(Br)o1)c1ccccc1 (centres undefined)	x	0.55
N#CC1=C(N)Oc2n[nH]c(-c3cccc([N+](=O)[O-])c3)c2C1c1c(F)cccc1Cl (centres undefined)	0.1	x

Filtered by structure, those above containing fluorine
SMILES	CapD inh	AID504770
Cn1nc(C(F)(F)F)c(C(=O)Nc2ccc(OC(F)(F)F)cc2)c1Cl	-0.52	x
CC1Cc2ccccc2N1C(=O)COc1c(F)c(F)c(F)c(F)c1F (centres undefined)	-0.63	-1.4
O=C1c2ccccc2C2=Nc3ccccc3SC(c3ccc(F)cc3)C12 (centres undefined)	2.33	-0.75
Cc1cc(/C=C2\SC(=O)N(C)C2=O)c(C)n1-c1ccc(Br)cc1F	-0.17	x
Cc1cc(C(=O)NNC(=O)c2ccccc2OC(F)(F)F)n[nH]1	11.1	x
CCCc1c(Cc2c(F)cccc2Cl)c(=O)oc2cc(O)ccc12	82.4	0.1
O=C1C2C3C=CC(CC3)C2C(=O)N1c1ccc(F)cc1 (centres undefined)	0.255	x
Cc1cc(Nc2cccc(C(F)(F)F)c2)nc2ccc(NC(=O)c3ccccn3)cc12	0.615	0.75
O=C(CN(Cc1ccco1)C(=O)Cn1cnnn1)Nc1ccc(Cl)c(C(F)(F)F)c1	x	-0.05
O=C(CN(C1=NC2CS(=O)(=O)CC2S1)c1ccccc1F)Nc1ccccc1 (centres undefined)	0.17	0.5
CCN(CC(=O)NCc1ccc(F)cc1)C(=O)C1CCCC1	x	1.55
N#Cc1c(C(F)(F)F)cc(-c2cccs2)nc1SCC(=O)Nc1ccccc1	9.44	x
CC1CN(S(=O)(=O)c2ccc(F)c(F)c2)CC(C)O1 (centres undefined)	0.5	0.2
O=C1N(c2ccccc2)C(c2ccccc2)C1(F)F (centres undefined)	-0.185	-0.05
O=C(Nc1ccc2oc(-c3ccc(F)cc3Cl)nc2c1)c1ccc([N+](=O)[O-])cc1[N+](=O)[O-]	-0.23	x
N#CC1=C(N)Oc2n[nH]c(-c3cccc([N+](=O)[O-])c3)c2C1c1c(F)cccc1Cl (centres undefined)	0.1	x
